# CHT block – inhibits the human high affinity choline transporter; CHT-expressing cells, membrane potential dye, choline response; hits give low values; B-score at 10 µM; 0.86% of 310,000 active;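 active = B-score over 3 SD under the library average, and starting fluorescence ratio not unusually high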;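 note: choline stimulus applied at its EC90 after an EC20 pre-addition; B-score computed on integrated fluorescence ratio after choline addition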
# Target sequence (Q9GZV3 whole entry, looked up): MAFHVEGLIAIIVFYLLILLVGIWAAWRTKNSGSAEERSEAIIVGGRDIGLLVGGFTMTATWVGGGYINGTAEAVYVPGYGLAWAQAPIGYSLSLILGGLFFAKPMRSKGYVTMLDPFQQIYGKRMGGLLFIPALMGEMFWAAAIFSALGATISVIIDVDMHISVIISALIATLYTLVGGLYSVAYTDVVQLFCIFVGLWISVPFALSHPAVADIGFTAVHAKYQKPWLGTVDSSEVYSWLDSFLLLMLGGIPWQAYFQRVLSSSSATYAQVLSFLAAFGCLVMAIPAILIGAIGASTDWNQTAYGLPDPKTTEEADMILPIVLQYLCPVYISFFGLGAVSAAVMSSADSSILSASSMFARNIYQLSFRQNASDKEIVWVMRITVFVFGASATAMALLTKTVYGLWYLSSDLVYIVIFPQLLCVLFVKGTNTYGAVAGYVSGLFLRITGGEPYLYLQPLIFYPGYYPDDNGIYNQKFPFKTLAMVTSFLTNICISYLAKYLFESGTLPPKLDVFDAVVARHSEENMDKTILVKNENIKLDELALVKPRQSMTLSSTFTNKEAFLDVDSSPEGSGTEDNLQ
# Calls only; i = inactive.
CHT block | Structure
i | CC(=O)NC(CCCCNC(=S)NC1CCCCC1)C(=O)O (centres undefined)
i | Nc1c(S(=O)(=O)c2ccccc2)cnc2c(-c3ccc(F)cc3)cnn12
i | COC(=O)Cc1c(C)c2ccc(OCC(=O)N(C)C)cc2oc1=O
i | CCCn1c(SCC(=O)Nc2nnc(C)s2)nnc1-c1ccoc1C
i | COc1cc(C(=O)Nc2cccc(-n3cnnn3)c2)cc(Cl)c1OC
i | CCOC(=O)N1CCC(=NNc2ccc(S(=O)(=O)N3CCOCC3)cc2[N+](=O)[O-])CC1
i | O=C(Nc1nnc(COc2ccccc2)s1)C1CCN(S(=O)(=O)c2ccc(Cl)cc2)CC1
i | C=CCn1c(Cc2cccs2)nnc1SCC(=O)NC1CC1
i | CCn1c(C)nc2cc(C(=O)NNC(=S)Nc3ccccc3Cl)ccc21
i | COc1ccc2c(c1OC)C(=O)OC2Nc1nc(-c2cc3cc(Br)ccc3oc2=O)cs1 (centres undefined)
i | CC(=O)Nc1ccc(S(=O)(=O)NCc2cc(=O)n(C)c(=O)n2C)cc1
i | CC(C)OCC(O)CN1CCN(C(c2ccccc2)c2ccccc2)CC1 (centres undefined)

# (listing goes on)
CHT block | Structure
i | Nc1nnc(-c2ccco2)s1
i | CCN(C(=O)COC(=O)c1cc(S(=O)(=O)Nc2c(C)n(C)n(-c3ccccc3)c2=O)ccc1Cl)C1CCCCC1
i | Cn1cc(Br)c(-c2cccc(N3C(=O)CC(C)(C)CC3=O)c2)n1
i | COc1ccccc1-c1nc2cc3ccccc3cc2nc1-c1ccccc1OC
i | S=C(NC1CCCCC1)N1CCN(c2ncccn2)CC1
i | CC1(C)C(=O)Nc2ccccc2N1C(=O)CN1C(=O)NC(CCc2ccccc2)C1=O (centres undefined)
i | COC(=O)c1cc(NC(=O)c2c(Cl)cnn2C)cc(C(=O)OC)c1
i | Cc1nnsc1NC(=O)OCC(C)C
i | COc1ccc(N2CC(C(=O)Nc3ccc4c(c3)OCCO4)CC2=O)cc1 (centres undefined)
i | O=C(COC(=O)c1n[nH]c2ccccc12)Nc1ccc(Cl)cc1[N+](=O)[O-]
i | COC(=O)CN1C(=S)N(C)C(=O)C1CC(=O)Nc1ccccc1 (centres undefined)
i | COc1cccc(CN(C)C(=O)CSc2nc3ccccc3[nH]2)c1OC

# (further entries)
CHT block | Structure
i | CCOC(=O)c1c(NC(=O)COc2cccc3c2CCN(Cc2ccc(F)cc2)C3=O)sc2c1CCC2
i | COC(=O)c1ccc(C23CC4(C2)[C@H](CN(Cc2ccc(C(F)(F)F)cc2)[C@@H]4c2ccccc2)C3c2ccc(Cl)nc2)cc1 (some centres undefined)
i | COc1cc(C(=O)O/N=C2\CCCc3c2ccc(OC)c3[N+](=O)[O-])cc(OC)c1OC
i | Cc1ccc(-c2nc3ccccn3c2Nc2ccccc2)o1
i | O=C(Nc1ccc(N2CCOCC2)cc1)c1cccc(S(=O)(=O)N2CCC(Cc3ccccc3)CC2)c1
i | O=C(NCc1ccc(Cl)cc1)C1CCC(CNc2c(N3CCCC3)c(=O)c2=O)CC1 (centres undefined)
i | COc1ccc(-c2nnc(SCc3ccc(C(=O)O)cc3)n2C)cc1OC
i | O=C(NCCCn1ccnc1)c1cccc(S(=O)(=O)NCc2ccccc2)c1
i | O=C(CSC(=S)N1CCCC1)Nc1ccc(Br)cc1Cl
i | COc1ccc(-c2nc(NC(=O)CSc3nnc(C)s3)ns2)cc1
i | CCC1Oc2ccc(C)cc2N(CC(=O)NCc2cccc(OC)c2)C1=O (centres undefined)
i | O=C1CCc2cc(S(=O)(=O)NCCCC(=O)N3CCN(Cc4ccc5c(c4)OCO5)CC3)ccc2N1

# A second format for four compounds above.
compound: O=C(NCCCn1ccnc1)c1cccc(S(=O)(=O)NCc2ccccc2)c1
  CHT block: i

compound: O=C(CSC(=S)N1CCCC1)Nc1ccc(Br)cc1Cl
  CHT block: i

compound: COc1ccc(-c2nc(NC(=O)CSc3nnc(C)s3)ns2)cc1
  CHT block: i

compound: CCC1Oc2ccc(C)cc2N(CC(=O)NCc2cccc(OC)c2)C1=O (centres undefined)
  CHT block: i

# Next part:
CHT block | Structure
i | COc1ccc(Cc2noc(CN(C)C3CC(C)(C)NC(C)(C)C3)n2)cc1OC
i | O=C(/C=C/Nc1ccc([N+](=O)[O-])cc1)c1ccc(Br)cc1
i | COCCn1c(C)cc(C(=O)COC(=O)/C=C/c2cccc(OC)c2)c1C
i | CC(C)CCSc1nc2c(c(=O)[nH]c(=O)n2C)n1CCc1ccccc1
i | CC1(C)C2CCC1(C)C(OC(=O)c1ccccc1C(=O)O)C2 (centres undefined)
i | COCCn1c(N2CCN(c3ccc(OC)cc3)CC2)nc2c1c(=O)[nH]c(=O)n2C
i | O=C(CCCN1C(=O)c2ccccc2C1=O)Nc1cccnc1
i | COc1ccc(-n2c(=O)/c(=C\c3cccs3)s/c2=C(/C#N)C(=O)NCCN2CCOCC2)cc1
i | CC1CCCC(NC(=O)C2N(CCCN3CCCC3)C(=O)C3C(C(=O)Nc4cccc(Cl)c4)C4C=CC32O4)C1C (centres undefined)
i | Cc1ccc(-n2c(SCC(=O)Nc3cc(C)on3)nc3ccccc3c2=O)cc1
i | CCCOC(=O)C1[C@H]2C(=O)N(CCCOC)C[C@]23C=C[C@H]1O3 (some centres undefined)
i | O=C(Cn1cc(C(F)(F)F)ccc1=O)NC(c1ccccc1)c1ccccc1

# Further structures:
CHT block | Structure
i | Cc1ccccc1C(=O)c1cccn1CC(=O)NCCCN1CCc2ccccc2C1
i | CCOc1ccc(C(=O)NC(C(=O)NCc2ccccc2OC)C(C)C)cc1 (centres undefined)
i | Cc1nc(C(=O)Nc2ccccc2)sc1C(=O)Nc1ccccc1
i | COc1cccc(COC(=O)C2CCN(C(=O)c3ccccc3C)CC2)c1OC
i | O=C(OCC(=O)N1CCOCC1)c1ccc(O)cc1
i | CC1(C)CC2CC(C)(CN2C(=O)c2ccc([N+](=O)[O-])cc2)C1 (centres undefined)
i | Cc1ccc(OCC(=O)Nc2ccc(-c3nc4ncccc4o3)cc2)cc1
i | Cc1nn(C)c(C(=O)NCc2ccc(Cl)cc2)c1Cl
i | C=C(C)CNC(=S)NNC(=O)c1ccncc1
i | Cc1cc(NC(=O)CN2C(=O)/C(=C/c3cccc(Br)c3)SC2=S)no1
i | CCOC(=O)N1CCN(C(=O)CCn2nc(-c3ccccc3)ccc2=O)CC1
i | COc1cc2nc(CN3C(=O)c4ccccc4C3=O)oc(=O)c2cc1OC

# Random excerpt: 2 compounds from above.
CHT block | Structure
i | Cc1nn(C)c(C(=O)NCc2ccc(Cl)cc2)c1Cl
i | O=C1CCc2cc(S(=O)(=O)NCCCC(=O)N3CCN(Cc4ccc5c(c4)OCO5)CC3)ccc2N1

# The list continues:
CHT block | Structure
i | O=C1CCC(C(=O)O)(c2ccccc2)C1 (centres undefined)
i | O=C(Nc1cccnc1)c1cnn2cccnc12
i | CC(=O)N1CCc2cc(S(=O)(=O)N3CCOCC3)ccc21
i | CCN(CC)S(=O)(=O)c1cccc(NC(=O)COC(=O)C2CC3C=CC2C3)c1 (centres undefined)
i | NC1=NC(=Nc2ccc(S(=O)(=O)N3CCOCC3)cc2)c2ccccc21
i | CCOc1ccc(-n2c(O)c(/C=N/Nc3nc(C)cc(C)n3)c3ccccc3c2=O)cc1
i | Cc1ccc(NC2=C(Cl)C(=O)OC2NC(=O)c2ccccc2)cc1 (centres undefined)
i | COC(=O)C1C(=O)OC(C)(C)C1C(C)C(=O)c1ccccc1 (centres undefined)
i | CC12CCC(=O)N1C(C(=O)NCCN1C(=O)S/C(=C\c3ccc(F)cc3)C1=O)CS2 (centres undefined)
i | O=C(Nc1cc(Cl)ccc1F)C1=COCCO1
i | Cc1cc(/C=N\NC(=O)COc2cccc3cccnc23)c(C)n1-c1ccc(Br)cc1
i | O=C(CCc1nnc(CCCc2ccccc2)o1)NCCCC1CCCC1

# Remaining list, next part.
CHT block | Structure
i | O=C(CCc1ccccc1)NCc1ccc2c(c1)OCO2
i | CC(c1ccccc1)C1NC(C(=O)O)CS1 (centres undefined)
i | CCNc1nc(NC(C)C)nc(N2CC(=O)N(CC(=O)OCC)C2=N)n1
i | Cc1cc(-c2ccc(C)c(S(=O)(=O)NCc3cccc(Br)c3)c2)on1
i | COc1ccc(/C(O)=C2/C(=O)C(=O)N(c3ncccn3)C2c2ccc(OC)c(OC)c2)cc1 (centres undefined)
i | CCN1CCN(CCC(=O)Nc2cccc(OC)c2)CC1
i | COc1ccccc1NC(=O)Nc1nc(CC(=O)N2CCN(c3ccc(F)cc3)CC2)cs1
i | CCOC(=O)Cn1c(=NC(=O)c2sc3ccccc3c2Cl)sc2cc(S(N)(=O)=O)ccc21
i | Cc1cc(C)nc(N2CCCC(C(=O)Nc3ccc4nc(C)c(C)nc4c3)C2)n1 (centres undefined)
i | Cc1cnc(NC(=O)COc2ccccc2)s1
i | CCC(c1nnc(SCC(=O)Nc2cc(S(C)(=O)=O)ccc2Cl)n1Cc1ccccc1)N(C)C (centres undefined)
i | CCC(=O)N1C(C(=O)NCc2ccc(OC)cc2)CSC1c1ccc(OC)cc1 (centres undefined)

# 3 compounds already listed, arranged by molar mass, high to low.
CHT block | Structure
i | CC12CCC(=O)N1C(C(=O)NCCN1C(=O)S/C(=C\c3ccc(F)cc3)C1=O)CS2 (centres undefined)
i | CC1(C)C(=O)Nc2ccccc2N1C(=O)CN1C(=O)NC(CCc2ccccc2)C1=O (centres undefined)
i | CC1(C)CC2CC(C)(CN2C(=O)c2ccc([N+](=O)[O-])cc2)C1 (centres undefined)

# (list continues)
CHT block | Structure
i | COC(=O)c1ccccc1NC(=O)C1CCCO1 (centres undefined)
i | C#CCN(Cc1ccco1)C(=O)c1ccc(OC2CCN(Cc3ccccn3)CC2)cc1
i | COc1ccccc1-c1nnc(N)s1
i | CC(=O)N1N=C(c2ccccc2)CC1c1cccs1 (centres undefined)
i | O=C(Nn1cnnc1)c1ccc(F)c(S(=O)(=O)N2CCCCC2)c1
i | Cc1noc(C)c1S(=O)(=O)N(C)CC(=O)NCc1ccccc1
i | COc1cccc(Nc2nc3ccccc3nc2NS(=O)(=O)c2cccs2)c1
i | O=C(CSc1ccc(Cl)cc1)N1CCCC1
i | Cc1[nH]c(=S)[nH]c(=O)c1CCOc1ccccc1
i | COc1cccc(/C=C/C(=O)OCC(=O)Nc2ccc(Cl)c(S(=O)(=O)N(C)C)c2)c1
i | Cn1c(-c2cc3ccccc3oc2=O)nc2ccccc21
i | COC(=O)N/N=C\c1cc2c(cc1Br)OCO2

# Reprinted from the part before: 3 entries; new compounds follow.
CHT block | Structure
i | COc1cccc(/C=C/C(=O)OCC(=O)Nc2ccc(Cl)c(S(=O)(=O)N(C)C)c2)c1
i | Cn1c(-c2cc3ccccc3oc2=O)nc2ccccc21
i | COC(=O)N/N=C\c1cc2c(cc1Br)OCO2
i | Cc1cccc(NC2=NCC(=O)N2CCc2ccccc2)c1
i | CCN1CCN(CCCNC(=O)CNC(=O)c2nn(-c3ccc(OC)cc3OC)c(=O)c3ccccc23)CC1
i | NNC(=O)c1oc2nc(-c3cccs3)cc(-c3ccco3)c2c1N
i | COc1ccc2[nH]c3c(c2c1)CCNC3C1CC=C(C)CC1 (centres undefined)
i | Cc1ccc(-c2nc(C#N)c(NCc3cccc4c3OCO4)o2)cc1
i | O=C(Nc1cnccn1)c1csc2ccccc12
i | COc1ccc(OC)c(NC(=O)c2ccc(CSc3nnc(C)s3)cc2)c1
i | COc1ccc(S(=O)(=O)N2CCOCC2)cc1C(=O)Nc1cc(C)on1
i | N#C/C(=C/c1ccc(Br)o1)C(N)=O
i | Cc1cccc2cc(/C=N/NC(=O)CN3CCOCC3)c(Cl)nc12
i | CC1(C)CC(=O)c2cc3c(nc2C1)CC(C)(C)CC3=O
i | CC1CCCCC1NC(=S)NC(=O)c1sc2ccccc2c1Cl (centres undefined)

# Continuation:
CHT block | Structure
i | Cc1ccc(OCCn2cnc3sc(C(N)=O)c(C)c3c2=O)cc1
i | COC(=O)CC1=C(C(=O)OC)C(c2ccncc2)C(C#N)=C(N)O1 (centres undefined)
i | CC(OC(=O)c1ccc2c(=O)n3c(nc2c1)CCCCC3)C(N)=O (centres undefined)
i | COc1cccc2sc(N3CCN(C(=O)C4COc5ccccc5O4)CC3)nc12 (centres undefined)
i | Cc1ccc2[nH]c(C)c(CC(=O)O)c2c1
i | Nc1nc(NCc2ccccc2)nc(Nc2cccc(F)c2)c1[N+](=O)[O-]
i | O=C(NC1CCCC1)C(c1cccs1)N(C(=O)c1ccco1)c1ccc2c(c1)OCO2 (centres undefined)
i | CC(C)=CC(=O)Nc1ccc2c(c1)OCO2
i | CCOc1ccc(CCNC(=O)c2cccc(C#N)c2)cc1OCC
i | COc1cc(-c2c(C#N)c(N)nc3c2CCCC3)cc(OC)c1OC
i | CCOC(=O)c1c(NC(=O)C2COc3ccccc3O2)sc(C(C)=O)c1C (centres undefined)
i | O=C(CN1CCOCC1)N1CCN(c2nnc(-c3ccccc3)c3ccccc23)CC1

# Further compounds follow:
CHT block | Structure
i | COc1cccc(Oc2c(C)oc3c(CN4CCCCC4)c(O)ccc3c2=O)c1
i | COc1ccc(/C=N/n2cnc3c([nH]c4ccccc43)c2=O)cc1CO
i | CC(C)Cc1nc(C(N)=O)c2[nH]c(=O)n(-c3ccc(F)cc3)c2n1
i | COc1cccc(-c2cc(C(F)(F)F)n3ncc(S(=O)(=O)c4ccccc4)c3n2)c1
i | Cc1ccc(NC(=O)COC(=O)CCn2c(C)csc2=O)cc1S(=O)(=O)N1CCOCC1
i | CC(C)(C)NC(=O)NC(=O)COC(=O)Cn1cnc2ccccc2c1=O
i | COc1ccc(C(=O)NC(C)c2ccc(-n3ccnc3)cc2)cc1[N+](=O)[O-] (centres undefined)
i | COc1ccc(-c2cc(C(=O)N3CCCC3)no2)cc1OC
i | COc1ccc(-n2nc(C(=O)NCC(=O)NC3CCCCCC3)c3ccccc3c2=O)cc1OC
i | S=C(NCCN1CCOCC1)Nc1cccc(Cl)c1
i | Cc1cc(C)n(CC(O)COCc2ccccc2)n1 (centres undefined)
i | CSCc1cc(N2CCOCC2)nc(SCc2ccc(Cl)cc2Cl)n1
i | CC(=O)c1ccc(OCC(O)CN2CCN(S(=O)(=O)c3cccc(Br)c3)CC2)cc1 (centres undefined)

# Bioassay records as filed in PubChem BioAssay.

# Some of the compounds tested, and most or all hits are left out here.
